# Assay outcomes: PubChem BioAssay, several laboratories
# MT1-MMP act inh: MT1-MMP (human) activation inhibition. P50281. HT1080 RFP-PRO-GFP cells, GFP/RFP ratio fluorescence, overnight; percent of plate control window, DMSO zero. GFP/RFP ratio change, % at 20 µM. hit rate 0.061% among 360,000;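 active means GFP/RFP ratio change of at least 30% with cell ATP level not reduced by more than half and red fluorescence within 50% of control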; further: strong numbers were not always called active
#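 Assay system: HT1080 RFP-PRO-GFP cells. Benchmarks: DMSO vehicle wells and RFP-L50D-GFP reporter cell wells. Times: overnight cell settling, then overnight compound exposure, 37 °C, 5% CO2. Compound: 20 µM single dose, 1% DMSO. Read-out basis: GFP/RFP fluorescence ratio.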
# PABP FP inh: PABP-poly(A) binding inhibition; hit rate 1% among 290,000; inhibition, % at 35 µM; P11940; AID 2014; PABP-poly(A) RNA binding, fluorescence polarization;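 active means 50% or more with normal probe brightness, or confirmed in later tests; inconclusive means above 50% with abnormal brightness, or retests that disagree; inactive means below 50% or failed in later tests; about a fifth of its hits are not listed in these tables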;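 further: calls also rest on retests at 20 µM and on dose response follow-up; controls were probe without protein and protein plus probe with vehicle; some compounds called inactive have numbers as strong as hits; many hits fall short of the cut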
# Target sequence (P11940 whole entry, looked up): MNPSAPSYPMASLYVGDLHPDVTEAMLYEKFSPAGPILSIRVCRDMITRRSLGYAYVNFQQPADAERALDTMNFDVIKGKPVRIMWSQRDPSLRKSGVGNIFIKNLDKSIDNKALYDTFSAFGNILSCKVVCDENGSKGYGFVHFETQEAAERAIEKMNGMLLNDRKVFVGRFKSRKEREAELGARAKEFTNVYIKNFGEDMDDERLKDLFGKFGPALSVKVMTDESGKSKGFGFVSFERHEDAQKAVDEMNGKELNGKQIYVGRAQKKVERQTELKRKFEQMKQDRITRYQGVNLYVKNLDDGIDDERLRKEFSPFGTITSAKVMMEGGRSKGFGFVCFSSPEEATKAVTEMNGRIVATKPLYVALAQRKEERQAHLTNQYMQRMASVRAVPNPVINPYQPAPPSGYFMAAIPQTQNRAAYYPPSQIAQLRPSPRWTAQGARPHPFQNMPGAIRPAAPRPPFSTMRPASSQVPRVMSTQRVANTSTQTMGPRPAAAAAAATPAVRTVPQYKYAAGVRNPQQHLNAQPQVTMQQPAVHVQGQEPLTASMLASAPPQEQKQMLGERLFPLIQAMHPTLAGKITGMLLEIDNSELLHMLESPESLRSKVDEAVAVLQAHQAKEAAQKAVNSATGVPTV
# Yeast UUG start: alters start codon recognition fidelity in yeast. S. cerevisiae UUG-firefly luciferase reporter, luminescence/redox ratio. AID 602363. activity score, % at 18.7 µM. hit rate 0.13% among 350,000;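 active means replicate mean at a twofold rise or more, about +100% in these data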;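 further: firefly luciferase made from a UUG start codon reports start codon fidelity; reporter light over untreated wells divided by growth signal over untreated wells; some hits fall short of that in this replicate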
# Rce1 inhib: blocks yeast Ras-converting enzyme. calls only. yeast membranes, quenched prenylated peptide cleavage fluorescence. hit rate 0.27% among 290,000. Q03530;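 active means fall in fluorescence gain of 50% or more versus controls, with final raw signal at or below 3038400; inconclusive means same 50% fall but final raw signal above 3038400; inactive means fall in fluorescence gain under 50%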;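 further: plate controls were neutral control wells for no effect and wells lacking membranes for full effect; tested at 10 µM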
# Target sequence (Q03530 whole entry, looked up): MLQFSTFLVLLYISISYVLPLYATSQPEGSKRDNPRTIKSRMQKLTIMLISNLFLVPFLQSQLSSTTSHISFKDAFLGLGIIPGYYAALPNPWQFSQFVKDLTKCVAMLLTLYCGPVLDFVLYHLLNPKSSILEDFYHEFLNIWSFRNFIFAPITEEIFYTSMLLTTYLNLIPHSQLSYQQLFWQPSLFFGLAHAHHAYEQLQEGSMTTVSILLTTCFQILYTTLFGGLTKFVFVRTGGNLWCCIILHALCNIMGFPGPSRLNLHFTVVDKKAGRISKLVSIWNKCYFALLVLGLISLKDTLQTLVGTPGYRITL
# HIV Env fusion: HIV envelope-mediated fusion inhibition; HeLa-JRFL Env/CEM21 cell fusion, luciferase; inhibition, % at 12.3 µM; hit rate 1.1% among 360,000;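 active means mean replicate inhibition score of at least 50 and every replicate individually at or above 50; inconclusive means only one of the two criteria met; inactive means mean below 50 and not all replicates reaching 50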;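 further: 0% = plate neutral controls and 100% = maraviroc near 300 nM; one replicate is shown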
# CSC inhib: blocks cancer stem cells. cancer stem cell-like cells viability, luminescence. inhibition, % at 7.5 µM. hit rate 1.1% among 300,000;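 active means mean at 75% or more and at least half the replicates too; inconclusive means mean and replicates disagree; tested in HMLE shEcad cells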;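 further: 0% = median of negative and 100% = median of positive control wells; the first replicate is given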
# eIF4H inh: inhibitors of RNA binding by human eIF4H; hit rate 0.94% among 290,000; Q15056; eIF4H fluorescence polarization binding assay; inhibition, % at 35 µM; AID 2012;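 active means 50% or more with normal probe brightness, or confirmed in later tests; inconclusive means above 50% with abnormal brightness, or retests that disagree; inactive means below 50% or failed in later tests; about a fifth of its hits are not listed in these tables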;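 further: calls also rest on retests at 20 µM and on dose response follow-up; 0% = protein and probe with vehicle and 100% = probe without protein; strong numbers were not always called active; many hits fall short of the cut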
# MT1-MMP act inh RFP: also measured in MT1-MMP act inh; calls as there; RFP signal change, %; measured here: RFP expression control read;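 0 = vehicle wells; hits needed this value within 50% of zero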
# Numbers without * were called inactive; i = inactive; ? = inconclusive; / = not tested or not shown; & = joins results of further samples; [ ] = another dose, or the depositor's remark.
SMILES	MT1-MMP act inh	MT1-MMP act inh RFP	PABP FP inh	Yeast UUG start	Rce1 inhib	HIV Env fusion	CSC inhib	eIF4H inh
COC(=O)CCC(=O)N1CN2CN(C(=O)CCC(=O)OC)CC([N+](=O)[O-])(C2)C1	7	3	12	-18	i	-1	-7	2
COc1ccc(N(C(=O)CNC(=O)c2cccs2)C(C(=O)NCC2CCCO2)c2ccccc2)cc1 (stereo not given)	-6	-3	-2	2	i	-4	-8	-13
COc1ccc2[nH]cc(CCNC(=O)c3ccco3)c2c1	2	1	/	-3	/	/	-5	/
CC1=NN(c2ccccc2)C(=O)/C1=C/C=C/C=C/N(C)C	40*	33*	-6	/	/	-18	0	?
CC(OC(=O)c1nsc(Cl)c1Cl)C(=O)NCCc1ccccc1 (stereo not given)	2	2	-1	-4	i	-19	/	-7
C=CCC(O)(CC=C)CNC(=O)C1CCC(=O)N(CCCc2ccccc2)C1 (stereo not given)	4	2	-14	9	i	-10	-8	4
CC(=O)c1cccc(NC(=O)COC(=O)c2ccccc2C)c1	0	1	8	-6	i	-18	1	6
CCOc1ccc(-n2c(C)nc3cc(C(=O)NCc4ccco4)ccc32)cc1	3	0	2	-20	i	/	-13	-6
COc1ccc(CCNc2nc(C)cc(C)c2C#N)cc1OC	-2	-3	-1	-6	i	-2	5	10
Cc1cc(C)c(NC(=O)CN(C)C(C)C(=O)N2CCc3ccccc32)c(C)c1 (stereo not given)	-1	1	/	/	/	6	-9	/
COCCn1c(C(C)C)nc2sc3ccccc3c(=O)c2c1=O	-1	0	11	/	i	/	6	0
CCCCOCC(O)Cn1c(C)nc2ccccc21 (stereo not given)	-2	1	17	/	i	/	-5	2
CCSc1nnc(-c2ccc(Cl)cc2)c2ccccc12	-5	-5	-1	-17	i	-6	-1	-16
C[C@H]1CN([C@@H](C)CO)S(=O)(=O)c2ccc(Br)cc2O[C@@H]1CN(C)C(=O)Cc1ccccc1	-2	2	/	-2&20	/	8[16.7 µM]	/	/
COc1ccc(C2CC(c3ccc(C)cc3)Nc3ncnn32)cc1 (stereo not given)	2	0	-12	-26	i	15	0	-8
CC(=O)NC(c1ccc(F)cc1)c1cccnc1 (stereo not given)	2	-4	11	-10	i	5	-7	4
COc1ccc(Br)cc1CN(C)CC(=O)Nc1cc([N+](=O)[O-])ccc1OC	5	-7	4	3	i	37	1	-5
COc1ccccc1CCC(=O)N(C)CC(=O)Nc1ccc(Cl)c(C(F)(F)F)c1	-1	-3	-1	-7	i	3	24	-10
CCCC1=NN2C(=N)/C(=C\c3ccc(OCCOc4ccc(NC(C)=O)cc4)c(OC)c3)C(=O)N=C2S1	-6	-2	-4	-15	i	-43	2	-8
CS(=O)(=O)c1ccc(C(=O)Nc2ccc(-c3nc4ccccc4[nH]3)cc2)cc1	-4	-3	-7	-19	i	1	1	-10
CCN(C[C@H]1N[C@@](C)(C(=O)OC)[C@H]2C(=O)N(Cc3ccccc3)C(=O)[C@@H]12)C(=O)Nc1ccc(F)cc1	3	4	/	-8	/	57*	/	/
COc1ccccc1-n1cnc2cc(NCc3ccccn3)ccc21	0	-3	-2	-28	i	-35	3	-10
Cc1ccccc1Cn1c(=O)n(CCCC(=O)NCc2ccco2)c(=O)c2sccc21	-1	-6	-3	-9	i	-14	-11	-2
Cc1ccc([N+](=O)[O-])cc1NC(=O)CN(C(=O)c1ccccc1Cl)C1CCCCC1	1	-5	-5	-11	i	16	-5	-3
COc1c(C)cc(C(=O)C2CCCN(C(=O)c3cc4nc(C)cc(C)n4n3)C2)cc1C (stereo not given)	-1	0	-3	/	i	9	-18	-5
COc1ccc(OC)c(Nc2cc(C)nc3ccc(C)cc23)c1	-9	-17	/	-9	i	11	44	/
O=C1CCc2cc(S(=O)(=O)N3CCN(c4ccccc4)CC3)cc3c2N1CCC3	3	-1	/	-14	i	-10	-7	/
O=c1cc(-c2ccc(C3CCCCC3)cc2)[nH][nH]1	0	-2	2	/	i	-20	-8	18
CN(C)c1ccc(N=Nc2ccccc2C(=O)OCC(=O)N2CCCC2)cc1	27	1	2	/	i	11	20	-12
CC(C)CNC(=O)C1(C)CCCN1C(=O)c1cc2ccccc2s1 (stereo not given)	5	4	/	-10	/	1	/	/
CC(C)C(NC(=O)OCc1ccccc1)C(=O)O (stereo not given)	-1	2	4	-1	i	-34	/	-10
O=c1c2cc(-c3ccccc3)sc2nc2n1N=C(c1cccs1)CS2	0	-7	5	-21	i	-293	22	2
CC(C)C(=O)NCCc1nc2ccccc2n1CCOc1ccccc1	2	4	-23	/	i	1	-3	-9
COc1ccccc1/C=C1\NC(=S)N(CC2CCCO2)C1=O (stereo not given)	-1	2	-6	-15	i	/	-2	3
COc1ccc(NC(=O)C2CCCN(S(=O)(=O)c3ccc(C)cc3)C2)cc1OC (stereo not given)	-19	-14	4	/	i	0	-8	6
O=C(O)c1ccc(/C=N/NC(=O)c2ccc(NS(=O)(=O)c3cccs3)cc2)cc1	-4	-2	4	-11	i	0	5	-5
O=C(CCC(=O)c1ccc(Br)cc1)Nc1cccnc1	0	2	9	/	i	-51	-6	5
CCCN(CCC)CCNC(=S)Nc1ccc2nc3n(c(=O)c2c1)CCCCC3	3	-1	6	/	i	12	-13	-2
Cc1ccc(S(=O)(=O)/N=C(\c2ccccc2)N(C)S(=O)(=O)c2ccccc2)cc1	1	5	-4	/	i	-4	-9	-15
CN(C(=O)c1ccc(NC(=O)Cc2cccc(NC(=O)C3CCCN(C(=O)C4CCC4)C3)c2)cc1)C1CCCC1 (stereo not given)	2	-6	/	-13	/	9	-8	/
O=C(O)c1ccc(CS(=O)c2cccc(C(F)(F)F)c2)o1 (stereo not given)	-4	-3	6	-4	i	18	3	2
Cn1ccc2c(-c3cccc(C=O)c3F)cc3c(c21)C1CCC3C1 (stereo not given)	14	10	/	-11	/	8	/	/
COc1ccc(CN2CCN(C(=O)c3ccccc3F)CC2)c(OC)c1OC	0	-2	/	/	i	2	-1	/
CN(C)C(=O)CCc1ccc2c3c([nH]c2c1)[C@]1(CCc2ccccc2)[C@@H](C(=O)N2CCCCC2)C[C@H](CC(=O)NCCC2=CCCCC2)C(=O)N1CC3	-28	-31	/	-9	/	0	/	/
CCN(CC)S(=O)(=O)c1ccc(C)c(NC(=O)c2cc(C)oc2C)c1	5	1	2	/	i	-3	-8	-7
CCOC(=O)c1c(C)[nH]c(C)c1C(=O)COC(=O)c1c(OC)cccc1OC	-1	-2	-2	-3	i	0	2	-2
O=C(c1ccccc1F)N1CCN(Cc2nc3sc4c(c3c(=O)[nH]2)CCCC4)CC1	-5	-5	6	-3	i	16	-6	-2
Cc1ccc(C)c(OCc2nnc(SCC(=O)NC(=O)NCc3ccco3)o2)c1	-2	3	-7	/	i	8	/	2
Cc1c(NC(=O)c2cc(CC(C)C)on2)c(=O)n(-c2ccccc2)n1C	-1	0	-3	-20	i	-2	-2	-15
Cc1ccc(CN(Cc2ccccn2)C(=O)Nc2c(F)cccc2F)cc1	3	0	7	-4	i	15	-8	0
Cc1cc(Cl)ccc1OCCCC(=O)NCCCn1ccnc1	2	5	1	/	i	-10	22	6
COc1cc(NC(=O)CN2C(=O)c3ccccc3C2=O)c(C(=O)O)cc1OC	2	0	2	4	i	/	-13	-8
CC1CCN(S(=O)(=O)c2ccc(C(=O)N3CCN(c4ccccc4F)CC3)cc2)CC1	1	-8	4	-2	i	3	1	-7
Cc1ccc(N(C)C(=O)N2CCN(c3ccccn3)CC2)cc1	1	6	-10	-11	i	-4	0	-14
Oc1c(Br)cc(Cl)cc1C=Nc1ccc(N2CCOCC2)cc1	-3	-1	19	-10	i	16	-9	50
COc1ccc(NC(=O)CSc2nc3nc(C)cc(C)c3c(=O)[nH]2)cc1OC	3	2	/	-13	/	/	-6	/
O=c1cc(COc2ccc(Cl)c(Cl)c2)nc2sccn12	-4	2	-6	-17	/	-39	15	0
c1ccc(N=P(c2nc3ccccc3o2)(N2CCOCC2)N2CCOCC2)cc1	2	2	-1	-3	i	/	6	1
O=C(CSc1nc2scc(-c3ccccc3)c2c(=O)[nH]1)NCCc1ccccc1	-1	-4	0	-1	i	10	13	-3
N#Cc1ccccc1CSc1nc2ccsc2c(=O)n1Cc1ccccn1	-5	-2	-1	-7	i	-3	/	-13

# An excerpt from above in order of the HIV Env fusion value, rising.
Molecule	MT1-MMP act inh	MT1-MMP act inh RFP	Yeast UUG start	Rce1 inhib	HIV Env fusion
Cc1ccc(N(C)C(=O)N2CCN(c3ccccn3)CC2)cc1	1	6	-11	i	-4
CC1CCN(S(=O)(=O)c2ccc(C(=O)N3CCN(c4ccccc4F)CC3)cc2)CC1	1	-8	-2	i	3
O=C(O)c1ccc(CS(=O)c2cccc(C(F)(F)F)c2)o1 (stereo not given)	-4	-3	-4	i	18

# Some of the entries so far, with each value named.
smiles: Cc1c(NC(=O)c2cc(CC(C)C)on2)c(=O)n(-c2ccccc2)n1C
  MT1-MMP act inh: -1 | MT1-MMP act inh RFP: 0 | PABP FP inh: -3 | Yeast UUG start: -20 | Rce1 inhib: i | HIV Env fusion: -2 | CSC inhib: -2 | eIF4H inh: -15
smiles: Cc1ccc(CN(Cc2ccccn2)C(=O)Nc2c(F)cccc2F)cc1
  MT1-MMP act inh: 3 | MT1-MMP act inh RFP: 0 | PABP FP inh: 7 | Yeast UUG start: -4 | Rce1 inhib: i | HIV Env fusion: 15 | CSC inhib: -8 | eIF4H inh: 0

# The listing continues:
SMILES	MT1-MMP act inh	MT1-MMP act inh RFP	PABP FP inh	Yeast UUG start	Rce1 inhib	HIV Env fusion	CSC inhib	eIF4H inh
COc1ccc(OCCCC(=O)OC(C)C(=O)Nc2ccc(C)cc2)cc1 (stereo not given)	-6	-2	/	-35	i	-2	-13	/
COc1ccc(-c2cc(C(=O)NCCN3CCOCC3)c3ccccc3n2)cc1OC	3	2	-1	-15	i	15	-16	-5
COc1ccc(C(=O)CC(Nc2ccc([N+](=O)[O-])cc2)c2ccc(Cl)cc2)cc1 (stereo not given)	/	/	-1	-4	i	6	40	-3
Cc1cc(N2CCN(C)CC2)nc2ccc(NC(=S)N3CCCCC3)cc12	2	4	17	-21	i	-4	/	12
CCc1nnc(NC(=O)Cc2ccc(S(=O)(=O)N3CCCCC3)cc2)s1	1	-5	/	/	/	11	6	/
CCCC(=O)Nc1sc(-c2ccccc2)c(-c2ccccc2)c1C(=O)O	1	2	/	/	i	-19	8	/
O=C(NCCCn1ccnc1)c1ccccc1Br	3	5	-12	-17	i	-4	-2	-12

# 2 of these compounds, set out differently.
> COc1ccc(OCCCC(=O)OC(C)C(=O)Nc2ccc(C)cc2)cc1 (stereo not given)
  MT1-MMP act inh = -6	MT1-MMP act inh RFP = -2	PABP FP inh = /	Yeast UUG start = -35	Rce1 inhib = i	HIV Env fusion = -2	CSC inhib = -13	eIF4H inh = /
> COc1ccc(-c2cc(C(=O)NCCN3CCOCC3)c3ccccc3n2)cc1OC
  MT1-MMP act inh = 3	MT1-MMP act inh RFP = 2	PABP FP inh = -1	Yeast UUG start = -15	Rce1 inhib = i	HIV Env fusion = 15	CSC inhib = -16	eIF4H inh = -5

# Some of the compounds tested; count on the stated rates, not on these rows.
